From PubChem BioAssay
Pol iota inh = blocks human DNA polymerase iota activity. Q9UNA4. Pol iota fluorescent replication assay, 10 min. Potency, µM (doses to about 115 µM), without a hit: top-dose activity, negative = inhibition, most hits filed as inhibitors. hit rate 1% among 390,000. AID 588590
Target sequence (Q9UNA4 whole entry, looked up): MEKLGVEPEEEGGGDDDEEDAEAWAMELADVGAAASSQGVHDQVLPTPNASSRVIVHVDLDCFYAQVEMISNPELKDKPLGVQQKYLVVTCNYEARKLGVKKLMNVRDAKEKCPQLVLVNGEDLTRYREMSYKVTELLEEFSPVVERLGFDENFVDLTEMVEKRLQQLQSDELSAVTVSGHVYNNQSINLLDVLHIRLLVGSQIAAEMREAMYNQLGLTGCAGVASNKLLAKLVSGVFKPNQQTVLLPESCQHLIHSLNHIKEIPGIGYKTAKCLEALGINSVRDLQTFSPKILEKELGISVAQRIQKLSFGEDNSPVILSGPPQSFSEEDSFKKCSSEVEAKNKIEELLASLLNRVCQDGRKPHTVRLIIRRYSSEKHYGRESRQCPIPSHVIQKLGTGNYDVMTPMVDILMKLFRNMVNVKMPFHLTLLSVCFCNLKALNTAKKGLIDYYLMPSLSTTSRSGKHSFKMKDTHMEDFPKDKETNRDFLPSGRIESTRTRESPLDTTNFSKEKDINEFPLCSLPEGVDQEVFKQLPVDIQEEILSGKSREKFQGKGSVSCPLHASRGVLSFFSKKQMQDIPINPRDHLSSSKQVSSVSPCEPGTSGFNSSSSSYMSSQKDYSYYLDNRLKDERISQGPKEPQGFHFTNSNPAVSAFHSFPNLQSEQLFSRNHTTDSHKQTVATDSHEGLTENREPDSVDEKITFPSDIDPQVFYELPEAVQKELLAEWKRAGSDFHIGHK
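Pol iota at 10 nM preincubated 15 min with compounds at room temperature; reaction started with fluorescent substrate, 50 nM final. Fluorescence read kinetically at 0 and 10 min; buffer-only wells as negative control.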
Pol kappa inh = blocks human DNA polymerase kappa activity; AID 588579; purified Pol kappa, fluorescent DNA synthesis assay, 10 min; Potency, µM (series often up to 107 µM), without a hit: top-dose activity, negative = inhibition, actives largely listed as inhibitors; hit rate 0.53% among 400,000; note: % is set by controls: 0 for no effect and ±100 for the full control effect
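Fluorescent qHTS in 1536-well format: enzyme (10 nM) and compound sat 15 min at room temperature before 50 nM substrate (final) was added. Signal taken at 0 and 10 min; no-enzyme buffer wells were negative controls.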
POLB inh = blocks human DNA polymerase beta activity. P06746. Pol beta primer extension/strand displacement, fluorescence kinetic. Potency, µM (titrated, usually from 114 µM), inactives show at the top dose activity change, negative = inhibition, most hits filed as inhibitors. hit rate 1.3% among 340,000; note: % is set by controls: 0 for no effect and ±100 for the full control effect
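Curves were derived by four-parameter Hill fits of normalized qHTS data. The kinetic fluorescent primer-extension read was taken at 0 and 10 min after 50 nM substrate, following a 15 min room-temperature preincubation of 10 nM enzyme with compounds.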
BLM inh = Bloom syndrome helicase (human) inhibition. P54132. recombinant BLM DNA unwinding, fluorescence dequenching. Potency, µM (highest dose often 56.1 µM), for the others: at the highest dose activity change, negative = inhibition, usual class: inhibitors. hit rate 0.2% among 350,000. AID 2528;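 note: plate controls were vehicle for no effect and no enzyme for full effect; nearly all actives have a fitted effect of over 35% in size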
APEX1 inh = blocks human APE1 abasic DNA cleavage; recombinant APE1, TAMRA/BHQ-2 abasic DNA cleavage fluorescence; AID 2517; Potency, µM (doses to about 65.8 µM), for the others: top-dose activity change, negative = inhibition, hits mostly inhibitors; P27695; hit rate 0.35% among 350,000;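 note: plate controls were vehicle for no effect and reference inhibitor for full effect; nearly all actives have a fitted effect of over 55% in size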
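Enzyme (0.75 nM final) and test compound are incubated 15 min at room temperature before adding 50 nM quenched THF abasic-site duplex. Cleavage dequenches TAMRA, followed at 525/598 nm over three reads one minute apart.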
12-LOX inh = inhibitors of human 12S-lipoxygenase ALOX12 | purified 12hLO, xylenol orange hydroperoxide absorbance | AID 1671190 | hit rate 1.1% among 580,000 | Potency, µM (series often up to 108 µM), without a hit: at the highest dose activity change, negative = inhibition, usual class: inhibitors | P18054; note: % is set by controls: 0 for no effect and ±100 for the full control effect
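Purified human 12hLO (150 nM final) in 25 mM Hepes, 0.01% Triton X-100, pH 7.0 was preincubated 15 min at room temperature with compound. Then 40 uM arachidonic acid was added, 30 min. Hydroperoxide was read by Fe-XO absorbance ratio 573/405 nm.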
Anesthetic bind = binds horse apoferritin like a general anesthetic | P02791 | apoferritin/1-aminoanthracene competitive binding, fluorescence | Potency, µM (series often up to 77.5 µM), for inactives: at the top dose activity change, negative = displacement, hits mostly inhibitors | hit rate 0.074% among 350,000 | AID 485281; note: % is set by controls: 0 for no effect and ±100 for the full control effect; nearly all actives have a fitted effect of over 20% in size
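Probe: 1-aminoanthracene (50% saturated, PBS). Protein: horse-spleen apoferritin, 10 uM. Incubation: 10 min, room temperature. Detection: 380 nm excitation, 535 nm emission. Analysis: normalized response, four-parameter Hill.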
ERG Ets-DNA blk = blocks human ERG Ets domain binding to DNA | P11308 | fluorescence polarization, His-ERG Ets domain / labelled DNA | Potency, µM (highest dose often 76.9 µM), for inactives: top-dose FP activity, negative = inhibition, hits mostly inhibitors | hit rate 0.028% among 370,000; active = well fitted inhibition curve with a large enough effect in the polarisation, with a control signal flat; inconclusive = small, poorly fitted or top-dose-only effect, or effect the other way, or a change in a side signal; inactive = no such curve, though single readings can be large or run the other way; the % refers to the polarisation;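 note: polarization taken with two DNA probes labelled with fluorescein and Texas red; % of control where 0% means no effect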
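His-tagged ERG Ets domain (1 uM in the protein solution; 300mM KCl, 50mM Tris-HCl, 1mM EDTA, 1mM DTT, pH 7.5) received compound, then a probe mix of 5 nM fluorescein-DNA and 100nM Texas-615-DNA. Fluorescence polarization was read for both dyes.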
Numbers without * were called inactive; ? = inconclusive; nt = not tested or not shown; & = joins results of further samples; [ ] = another dose, or the depositor's remark. Unless noted, calls come from the whole dose curve; as a rule, active = well fitted curve in the direction sought with a large enough effect; inconclusive = small, poorly fitted or top-dose-only effect, or another doubt; inactive = no such curve, though single readings can be large; an effect the other way counts as inactive or inconclusive. Potency is the fitted concentration of half-maximal effect. Not all compounds are listed (hit frequency here may not be typical).

1: O=c1[nH]c2ccccc2n1CCCN1CCC(n2c(=O)[nH]c3cc(Cl)ccc32)CC1
2: C[N+](C)(C)CC(=O)O
3: CC(=O)c1ccc(-c2ccccc2)cc1
4: ClC1=C(Cl)C2(Cl)C3C(Cl)C=CC3C1(Cl)C2(Cl)Cl (stereo not given)
5: CCc1ccc(-n2c(O)c(C(C)=O)c(=O)[nH]c2=O)cc1 (tested in a mixture with another compound)
6: Cc1cc([N+](=O)[O-])ccc1N
7: C[C@]12CCC3C(CC[C@H]4C[C@@H](O)CC[C@]34C)[C@H]1C=CC2=O (stereo not given in full)
8: CC12CCC(=O)C=C1CCC1C2CCC2(C)C(O)CCC12 (stereo not given)
Assay by compound	1	2	3	4	5	6	7	8
12-LOX inh	?	-20%	0%	0%	?	-19%	-1%	-8%
POLB inh	1%	2%[57.1 µM]	-6%	nt	-3%	nt	nt	5%
ERG Ets-DNA blk	21%	0%	4%	1%	-8%	1%	-10%	13%
Anesthetic bind	-7%	nt	-17%	?	-1%	nt	nt	-15%
APEX1 inh	?	20%&17%&0%	-3%	7%&2%&2%	2%	46%&1%[activator]	-10%	1%
Pol kappa inh	-18%[60.1 µM]	2%[60.1 µM]	-7%	3%	-2%	3%	-17%	-6%
BLM inh	4%	nt	0%	4%	-1%	nt	nt	-6%
Pol iota inh	4%[58.9 µM]	-4%	?	45%[activator]	-11%[58.9 µM]	?	43%[activator]	?

9: CC(CCc1ccccc1)NC(C)C(O)c1ccc(O)cc1 (stereo not given)
10: Clc1ccc(COC(Cn2ccnc2)c2ccc(Cl)cc2Cl)c(Cl)c1 (stereo not given)
11: ClCC(Br)CBr (stereo not given)
12: C=CCN1CC[C@]23c4c5ccc(O)c4O[C@@H]2C(=O)CC[C@]3(O)[C@H]1C5
13: C[N+]1(C)[C@@H]2CC[C@H]1CC(OC(=O)[C@@H](CO)c1ccccc1)C2 (stereo not given in full)
14: O=c1[nH]cnc2[nH]ncc12
15: CCCCCCCCC(=O)NCc1ccc(O)c(OC)c1
16: N#CC1=C(N)Oc2cc(O)ccc2C1c1ccc2c(c1)OCO2 (stereo not given)
Assay by compound	9	10	11	12	13	14	15	16
12-LOX inh	-10%	?	8%	284%[activator]	18µM*	?	-9%	?
POLB inh	0%	26%	nt	nt	28%	1%	21%[57.1 µM]	6%
ERG Ets-DNA blk	0%	11%&14%	6%	nt	-13%	20%	3%	7%
Anesthetic bind	0%&11%	-14%	nt	11%[29.3 µM]	-1%	-1%&12%	nt	-4%
APEX1 inh	20%&-3%&0%&10%	?	?	-8%	-39%	3%&-2%&0%&2%	-11%&13%&0%	5%
Pol kappa inh	4%[60.1 µM]	-28%	0%	-10%[19.4 µM]	-2%	1%[60.1 µM]	-23%	-10%
BLM inh	4%&-9%&-14%	-18%	nt	1%	-2%	-5%&-12%&2%	-1%&0%	-8%
Pol iota inh	?	?	-12%	nt	?	-29%	?	?

17: Oc1ccc(C(=C(Cl)Cl)c2ccc(O)cc2)cc1
18: C=CCn1c(O)c(C(C)=O)c(=O)[nH]c1=O (tested in a mixture with another compound)
19: C1CC2OC2CC1C1CO1 (stereo not given)
20: CC(=O)[C@H]1CC[C@H]2[C@@H]3CCC4=CC(=O)CC[C@]4(C)[C@H]3CC[C@]12C
21: C[C@@]12CCC(=O)C[C@@H]1CC[C@@H]1[C@@H]2CC[C@]2(C)C(=O)CC[C@@H]12
22: COC1=C[C@H]2[C@H]3Cc4ccc(OC)c(O)c4[C@@]2(CCN3C)CC1=O
23: C[C@]12CCC(=O)C(O)=C1CC[C@@H]1[C@@H]2CC[C@]2(C)C(=O)CC[C@@H]12
24: CC1C(=O)CC2(C(C)C)CC12 (stereo not given)
Assay by compound	17	18	19	20	21	22	23	24
12-LOX inh	nt	83%[activator]	6%	2%	nt	nt	-11%	-2%
POLB inh	1%	?	nt	2%	nt	nt	20%	nt
ERG Ets-DNA blk	nt	2%	-1%	-13%&-1%	nt	nt	11%	nt
Anesthetic bind	?	-3%	nt	?	6%	nt	-8%	nt
APEX1 inh	-14%	-1%	-15%&1%	-5%&-2%&-3%&2%&-1%&-1%&-2%&1%	1%	-6%	-4%	nt
Pol kappa inh	nt	-14%	10%	-20%[60.1 µM]	-6%[60.1 µM]	-9%[19.4 µM]	-33%	nt
BLM inh	-12%	-3%	nt	-1%&-8%&1%	4%	0%	1%	nt
Pol iota inh	nt	-7%[58.9 µM]	9%	-11%	nt	nt	-2%	nt

In the list so far, five have nitrogen in an aromatic ring.
1: O=c1[nH]c2ccccc2n1CCCN1CCC(n2c(=O)[nH]c3cc(Cl)ccc32)CC1
5: CCc1ccc(-n2c(O)c(C(C)=O)c(=O)[nH]c2=O)cc1 (tested in a mixture with another compound)
10: Clc1ccc(COC(Cn2ccnc2)c2ccc(Cl)cc2Cl)c(Cl)c1 (stereo not given)
14: O=c1[nH]cnc2[nH]ncc12
18: C=CCn1c(O)c(C(C)=O)c(=O)[nH]c1=O (tested in a mixture with another compound)
Assay by compound	1	5	10	14	18
12-LOX inh	?	?	?	?	83%[activator]
POLB inh	1%	-3%	26%	1%	?
ERG Ets-DNA blk	21%	-8%	11%&14%	20%	2%
Anesthetic bind	-7%	-1%	-14%	-1%&12%	-3%
APEX1 inh	?	2%	?	3%&-2%&0%&2%	-1%
Pol kappa inh	-18%[60.1 µM]	-2%	-28%	1%[60.1 µM]	-14%
BLM inh	4%	-1%	-18%	-5%&-12%&2%	-3%
Pol iota inh	4%[58.9 µM]	-11%[58.9 µM]	?	-29%	-7%[58.9 µM]
